# CtBP-E1A blk: inhibitors of CtBP/E1A interaction; AlphaScreen GST-E1A/His-CtBP binding, 1536-well; stronger effect = lower value; control for the full effect not named in the record; activity change, % (test concentration not listed); 340,000 compounds, 0.49% hits; in the data active means activity change below about -65%; inconclusive means about -30% to -65%; inactive means above about -30%; also: % is scaled to controls: 0 for no effect and ±100 for the full control effect
#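 AlphaScreen with 125 nM GST-E1A and 125 nM His-CtBP (5X stocks) in Tris pH 8.0, 300 mM NaCl, BSA, Tween 20, TCEP. Compounds preincubated 2 h at 37 deg C, then glutathione donor/nickel acceptor beads added for 1 h at 37 deg C in dark.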
# D2 agonist: human D2 receptor agonism in beta-arrestin assay; 360,000 compounds, 0.084% hits; AID 624465; activation, % (no concentration beside the values); DiscoveRx PathHunter D2 beta-arrestin, luminescence, 90 min; 100% = 57 uM dopamine signal; P14416; in the data active = activation above about 40%; inconclusive = about 15% to 40%; inactive = below about 15%; also: compound concentration not given in the record; the text of the record calls up to 30% inactive
# Target sequence (P14416 whole entry, looked up): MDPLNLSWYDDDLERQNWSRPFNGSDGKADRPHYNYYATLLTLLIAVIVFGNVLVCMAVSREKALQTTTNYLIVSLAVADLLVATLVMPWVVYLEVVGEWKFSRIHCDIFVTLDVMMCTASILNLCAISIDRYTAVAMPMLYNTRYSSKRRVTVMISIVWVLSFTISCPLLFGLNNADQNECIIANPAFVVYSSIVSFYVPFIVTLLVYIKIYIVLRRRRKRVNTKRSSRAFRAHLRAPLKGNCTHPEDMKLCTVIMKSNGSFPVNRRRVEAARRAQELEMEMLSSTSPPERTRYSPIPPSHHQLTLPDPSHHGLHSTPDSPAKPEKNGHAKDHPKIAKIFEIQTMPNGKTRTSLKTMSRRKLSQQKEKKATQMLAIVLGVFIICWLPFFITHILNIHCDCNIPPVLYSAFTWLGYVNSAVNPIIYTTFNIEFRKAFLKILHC
#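 DiscoveRx PathHunter D2 beta-arrestin cells (2,100/well) attached overnight, then compound-stimulated 90 min at 37 C in HBSS/10 mM HEPES/0.1% Tween-20 buffer; beta-galactosidase complementation read by luminescence after 1 h at ambient temperature. Dopamine 57 uM final (EC100) as control.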
# Six1-Eya2 inh: Six1/Eya2 interaction inhibition. AlphaScreen GST-Six1/His-Eya2 binding, biochemical; stronger effect = lower value; control for the full effect not named in the record. activity change, % (test concentration not listed). 360,000 compounds, 0.56% hits. AID 651725; in the data active = activity change below about -65%; inconclusive = about -30% to -65%; inactive = above about -30%; also: % is scaled to controls: 0 for no effect and ±100 for the full control effect
#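 Homogeneous AlphaScreen proximity assay pairing GST-Six1 with His-tagged Eya2 (added as 5X mix: 250 nM and 500 nM) in 50 mM Tris pH 8.0, 300 mM NaCl, 1 mM TCEP. Glutathione donor and nickel acceptor beads; 1 h, 37 °C, dark.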
# PINK1 expr mod: modulators of PINK1 expression; PINK1 immunofluorescence, high-content cytometry, 24 h; Potency, µM (doses to about 76.6 µM), inactives show at the highest dose activation (PINK1 increase), most hits filed as activators; 410,000 compounds, 0.2% hits; active = well fitted activation curve with a large enough effect; inconclusive = small, poorly fitted or top-dose-only effect; inactive = flat fitted curve, though single readings scatter; cell line not stated here;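 also: potency is read from the fitted curve at half-maximal effect; % of control where 0% means no effect; nearly all actives have a fitted effect of over 65% in size; a mitochondrial uncoupler was the plate control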
#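 Cells are seeded, rested 12 hours, then given compound at five concentrations or DMSO for 24 hours. After fixation, blocking and antibody staining, PINK1 amount and mitochondrial localization are scored; CCCP serves as control.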
# TRPML1 ag: agonists of human TRPML1 channel; Q9GZU1; TRPML1-expressing cells, Ca2+ dye fluorescence, FDSS; host cell line not named in the record; reference of the full effect not given here; activation, % (concentration not given with the values); 410,000 compounds, 0.12% hits; in the data active = activation above about 50%; inconclusive = about 30% to 50%; inactive = below about 30%; also: 0% is about no effect; the text of the record puts the active cut at 80%
# Target sequence (Q9GZU1 whole entry, looked up): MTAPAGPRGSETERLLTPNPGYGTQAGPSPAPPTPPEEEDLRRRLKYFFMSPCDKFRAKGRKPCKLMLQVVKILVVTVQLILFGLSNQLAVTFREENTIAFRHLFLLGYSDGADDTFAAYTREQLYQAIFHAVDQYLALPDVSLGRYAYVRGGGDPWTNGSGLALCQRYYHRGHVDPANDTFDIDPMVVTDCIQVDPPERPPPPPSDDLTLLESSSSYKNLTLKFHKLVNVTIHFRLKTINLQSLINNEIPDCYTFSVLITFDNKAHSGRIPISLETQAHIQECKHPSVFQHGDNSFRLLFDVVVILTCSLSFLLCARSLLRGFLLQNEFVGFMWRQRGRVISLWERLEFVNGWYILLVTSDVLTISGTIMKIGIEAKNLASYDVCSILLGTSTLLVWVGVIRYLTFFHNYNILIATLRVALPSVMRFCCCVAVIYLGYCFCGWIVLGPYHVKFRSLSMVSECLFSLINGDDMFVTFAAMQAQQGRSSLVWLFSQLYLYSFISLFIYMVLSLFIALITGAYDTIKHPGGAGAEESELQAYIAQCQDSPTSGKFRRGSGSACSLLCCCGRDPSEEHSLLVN
#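 Tetracycline-induced TRPML1-DL cells are seeded and incubated overnight before loading with a no-wash Ca2+ dye and quencher. Agonist activity is taken from the 110 s fluorescence read following compound pin-transfer on an FDSS, before EC80 54-4 challenge.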
# D2 potentiator: potentiates the human D2 dopamine receptor allosterically | P14416 | DiscoveRx D2 beta-arrestin cells, luminescence, 90 min; 100% = 57 uM dopamine signal | potentiation, % (no concentration beside the values) | 360,000 compounds, 0.23% hits | AID 624464; active = potentiation of 50% or more; inconclusive = 30% to 50%; inactive = 30% or less;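 also: compound concentration not given in the record; tested on top of an EC20 dose of dopamine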
#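 PathHunter beta-arrestin assay in DiscoveRx D2 cells. Compounds were added with an EC20 of dopamine (50 nM final) for 90 min at 37 deg C. Luminescence was read 1 h after detection reagent, with 57 uM dopamine as the EC100 control.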
# An asterisk follows results filed as active; ? = inconclusive; . = no result given; [ ] = remark or other dose. Compounds were not picked by outcome. About 1.3% of those tested had a hit in this group.
SMILES,CtBP-E1A blk,D2 agonist,Six1-Eya2 inh,PINK1 expr mod,TRPML1 ag,D2 potentiator
C[C@H](NC(=O)c1nc[nH]c1C(=O)NC(c1ccccc1)c1ccccc1)C(=O)OCc1ccccc1,-25,-5.5,-10,2.3%,-0.3,-20
CCN(CC)CC(=O)c1ccc(-c2ccccc2)cc1,44,-17,19,0.4%[38.3 µM],1.1,-38
CN(C)C(=O)CCSc1nnc(-c2ccco2)o1,11,2.8,1,-0.5%,-0.3,3
CN(CC(=O)Nc1ccc(Cl)c(C(F)(F)F)c1)C(=O)/C=C/c1ccco1,-18,-2.9,-6,1.7%,0.3,-28
CCOC(=O)CSc1nc2sc3c(c2c(=O)n1-c1ccc(OC)cc1)CCN(C)C3,-11,-2.7,-3,1.9%,1.7,-6
Cc1ccc(C)c(N2CCN(C(=O)C(Cc3ccccc3)n3cccc3)CC2)c1 (configuration not stated),-13,1.0,-17,12%,1.1,-6
O=C(c1ccco1)N1CCN(S(=O)(=O)c2cccs2)CC1,4,-2.2,6,.,0.6,-16
CC(=O)Nc1ccc(S(=O)(=O)N2CCN(c3cccc(C)c3C)CC2)cc1,-2,-2.4,1,3.9%,-0.6,-7
c1ccc(C2NCCn3cccc32)cc1 (configuration not stated),-2,-2.8,-5,-0.4%,-0.3,1
O=C(CSc1ncc(C(F)(F)F)cc1Cl)N1CCN(S(=O)(=O)c2ccc(Cl)cc2)CC1,9,-2.0,5,.,2.3,2
COc1ccc(C2C(C#N)=C(/N=C/N3CCN(C)CC3)OC3=C2C(=O)CC(C)(C)C3)cc1OC (configuration not stated),2,-1.2,3,10%[38.3 µM],0.5,-7
COc1ccc(C(=O)/C=C/C(=O)N(Cc2ccc(F)cc2)C(C(=O)NC2CCCCC2)c2ccncc2)c(O)c1 (configuration not stated),-3,-1.7,-16,?,2.1,1
COc1ccc(CCNC(=O)CS(=O)(=O)c2cn(CC(=O)N3CCOCC3)c3ccccc23)cc1OC,0,3.5,5,0.2%,-0.5,5
O=C(COc1ccc(Cl)cc1)NCc1ccc(F)cc1,9,-1.5,15,2.7%,0.7,-9
CCn1cc(CN2CCCC(CNS(=O)(=O)Cc3ccccc3)C2)cn1 (configuration not stated),4,-1.7,4,-0.1%,0.0,-8
Cc1c(NS(=O)(=O)c2ccc3c(c2)OCCO3)cccc1-c1nc2cccnc2s1,-1,-3.8,5,2.0%,-0.2,-1
O=C(NCCCN1CCCC1=O)C1CCCO1 (configuration not stated),-3,0.4,-9,2.0%,-0.8,-18
CCOC(=O)c1[nH]c(=O)[nH]c1CSc1nc(C)cc(C)n1,-3,-8.7,-6,3.8%,-0.2,-25
COc1ccc(-n2nc3ccccc3n2)cc1,-2,0.4,7,-1.1%,0.4,6
Cc1cc(C)n2nc(SCC(N)=O)nc2n1,6,-0.9,7,0.5%,-0.5,-4
CC(C)[C@@H](N)C(=O)NC[C@H]1O[C@@H](n2cnc3c(N)ncnc32)[C@H](O)[C@@H]1O,-7,-4.2,0,-0.8%,0.5,.
CCOC(=O)c1c(N)sc2c1CCC(CC)C2 (configuration not stated),-9,-1.8,-8,-1.1%,0.9,-11
COc1ccc(CC(=O)NCc2nnc(SCC(=O)Nc3ccc(OC)cc3)n2C)cc1,.,0.2,-8,0.2%,0.3,-6
COCCN(C(=O)COC(=O)CC1CCCCC1)c1c(N)n(Cc2ccccc2)c(=O)[nH]c1=O,-22,-1.6,4,-1.0%,0.4,-10
CCc1cccc(C)c1NC(=O)CC(C)(C)CC(=O)O,8,-2.7,-5,0.4%,0.1,-23
O=C(NCCCn1ccnc1)c1cc(-c2ccc(Br)cc2)on1,-3,-4.3,-8,2.7%,-0.2,-21
CC(C)Cc1[nH]c(=O)c(C#N)c2c1CCCC2,51,1.3,19,1.5%[38.3 µM],0.7,-16
Cc1ccc(-c2nc3c(Cl)cc(Cl)cc3c(=O)n2O)cc1,.,-2.4,-6,7.8%,?,-2
CC1=C(C#N)C(=O)NC(=O)/C1=C\c1ccc(-c2ccc(C)cc2[N+](=O)[O-])o1,-3,-1.4,-6,0.9%,-0.6,-1
Cc1ccc2nc(-c3cccnc3)c(NC3CCCC3)n2c1,-2,-1.3,-9,4.3%,0.7,-19
COc1c(C(=O)NCCSC(C)(C)C)ccc2ccccc12,10,-3.1,-15,1.2%,-0.4,-5
CCCOC(=O)Nc1ccc(C(N)=O)cc1,-4,-0.6,6,-1.4%,0.3,-5
O=S1(=O)C=C[C@@H](COCc2ccccc2)N1Cc1ccc(Br)cc1,-6,-2.9,13,2.5%,2.1,-7
O=C(NC(CO)Cc1ccccc1)c1ccccc1 (configuration not stated),4,-5.7,6,1.3%,0.4,-7
COC(=O)c1c(N)n(-c2ccc(NC(C)=O)cc2)c2nc3ccccc3nc12,-16,0.7,-26,2.7%,-0.4,0
Cc1ccc(C(=O)/C=C/c2ccc3c(c2)OCCO3)c(O)c1,5,-1.1,4,0.7%,1.9,-1
Cc1cccc(N(CC(=O)NCc2ccc(F)cc2)C(=O)c2ccco2)c1,-4,-1.1,7,-0.6%,0.8,-2
O=c1c(Cc2ccc(F)cc2)c(O)ccn1Cc1ccc(F)cc1,.,1.8,6,2.4%,1.1,-12
Cc1ccc2ccccc2c1C(O)c1ncc(-c2cccc(F)c2)[nH]1 (configuration not stated),-6,-3.3,-15,7.6%,0.7,-10
Cc1ccccc1C(=O)NCc1nnc(SCC(=O)N2CCN(c3ccccc3)CC2)n1C,0,-5.8,-1,0.6%,-0.6,-6
O=C(NCc1ccc2c(c1)OCO2)C1CCN(S(=O)(=O)N2CCCCC2)CC1,9,0.6,-8,-2.5%,-0.3,5
c1ccc2oc(SCc3cn4ccsc4n3)nc2c1,-27,-1.7,-20,3.7%,-0.2,-9
CCn1c(SCC(=O)NCC2CCCO2)nc2c(c1=O)SCC2 (configuration not stated),-1,-1.3,2,0.2%,2.3,3
COc1ccc(S(=O)(=O)NNC(=O)C23CC4CC(CC(C4)C2)C3)cc1,-2,-3.3,-2,1.1%,0.1,-3
CN(CCOc1ccc(Cl)cc1)C(=O)C1CCN(C(=O)c2ccc(Cl)cc2)CC1,-10,0.8,0,1.5%,0.0,-19
Cc1cc(C)n(CCN(C)C(=O)CCc2nnc(CCC3CCCCC3)o2)n1,.,3.6,1,0.6%,0.3,-6
CCCCc1n[nH]c(=S)n1Cc1ccc(C)cc1,-17,-1.9,-1,0.0%,0.6,-10
COc1cccc(NC(=O)c2ccc(NC(=O)C(C)C)cc2)c1,-2,-4.1,-4,1.3%,-0.8,-6
Cc1cc(C)c2c(c1)C(=O)/C(=C/c1ccc(C(=O)O)cc1)CC2,8,-1.1,-7,-2.5%,0.5,-1
CCN(CC(=O)Nc1cc(Cl)ccc1C)C(=O)Cn1c(=O)cnc2ccccc21,0,-4.1,1,?,-0.5,-34

# More structures.
SMILES,CtBP-E1A blk,D2 agonist,Six1-Eya2 inh,PINK1 expr mod,TRPML1 ag,D2 potentiator
O=C1CC(C(=O)Nc2cccc3ccccc23)C2(CCCC2)O1 (configuration not stated),1,10,0,-1.5%,-0.4,-5
O=C(CN(CC1CCCO1)C(=O)CNS(=O)(=O)c1ccc(F)cc1)NC1CCCCC1 (configuration not stated),2,-0.4,19,-0.4%,-0.3,-6
Cc1ccc(C(=O)NCCc2n[nH]c(=S)n2C)cc1,13,-2.3,4,0.7%,0.1,-4
CCOc1ccccc1C(=O)NCCCn1ccnc1,7,-3.4,4,1.4%,-0.1,-7
CC(C)C12CN3CC(C(C)C)(CN(C1)C3c1ccc3c(c1)OCO3)C2=O (configuration not stated),22,-1.7,-7,4.7%[38.3 µM],0.2,-3
COc1cc(CC(=O)OCC(=O)c2ccc3c(c2)OCCO3)cc(OC)c1OC,1,-4.7,0,7.3%,-0.6,14
O=C(Nc1ccc(F)cc1)c1ccc(S(=O)(=O)NCC2CCCO2)cc1 (configuration not stated),5,2.7,1,3.6%[38.3 µM],0.4,-6
c1ccc(CN2CCN(c3ncnc4c3[nH]c3ccccc34)CC2)cc1,-11,8.2,-22,7.9%,-1.8,-22
CCCn1c(C)cc(C(=O)COC(=O)c2ccc[nH]c2=O)c1C,1,1.0,4,-1.1%,-0.1,-2
Cc1csc(=O)n1CC(=O)OCc1nnc(-c2ccc(Cl)cc2)o1,3,-4.4,0,-0.4%,0.2,-5

# At a glance, some entries already given:
SMILES,CtBP-E1A blk,D2 agonist,Six1-Eya2 inh,PINK1 expr mod,TRPML1 ag,D2 potentiator
CC(C)C12CN3CC(C(C)C)(CN(C1)C3c1ccc3c(c1)OCO3)C2=O (configuration not stated),22,-1.7,-7,4.7%[38.3 µM],0.2,-3
COc1cc(CC(=O)OCC(=O)c2ccc3c(c2)OCCO3)cc(OC)c1OC,1,-4.7,0,7.3%,-0.6,14
O=C(Nc1ccc(F)cc1)c1ccc(S(=O)(=O)NCC2CCCO2)cc1 (configuration not stated),5,2.7,1,3.6%[38.3 µM],0.4,-6
c1ccc(CN2CCN(c3ncnc4c3[nH]c3ccccc34)CC2)cc1,-11,8.2,-22,7.9%,-1.8,-22
CCCn1c(C)cc(C(=O)COC(=O)c2ccc[nH]c2=O)c1C,1,1.0,4,-1.1%,-0.1,-2
Cc1csc(=O)n1CC(=O)OCc1nnc(-c2ccc(Cl)cc2)o1,3,-4.4,0,-0.4%,0.2,-5

# (cont.)
SMILES,CtBP-E1A blk,D2 agonist,Six1-Eya2 inh,PINK1 expr mod,TRPML1 ag,D2 potentiator
COc1ccc(NS(=O)(=O)c2ccc(NC(=O)C(C)(C(F)(F)F)C(F)(F)F)cc2)nn1,0,0.9,3,-0.6%,0.0,-4
COc1ccc(/C=N/NC(=O)CCn2cnc(-c3ccccc3)c2-c2ccccc2)cc1OC,-16,-2.7,-15,5.1%,0.8,6
CCCCn1c(NCc2ccc3c(c2)OCO3)nc2ccccc21,-4,-5.6,4,-1.1%,2.0,-39
O=c1[nH]c2ccc(Cl)cc2c(-c2ccccc2)c1SC(=S)N1CCOCC1,-7,-6.6,-14,-2.7%,1.9,0
CCNC(=O)N(C(=O)NCC)n1c(C)nnc1C,6,-0.4,2,-0.7%,0.1,-6
Cc1ccc(C)c(Nc2c([N+](=O)[O-])cc(C(=O)N3CC(=O)Nc4ccccc43)cc2[N+](=O)[O-])c1,?,6.2,?,1.9%,4.1,25
CCc1nnc(NC(=O)c2cccc(S(=O)(=O)N3CCN(C(C)=O)CC3)c2)s1,9,-2.1,4,1.1%,1.3,-2
CCSc1nc2ccccc2n1CC(=O)O,-13,-1.3,10,-0.9%,1.2,-4
CCn1c(SCC(=O)NCc2ccccc2)nnc1C(CO)NC(=O)c1ccccc1 (configuration not stated),7,-2.2,2,-0.6%,-0.7,-22
C(=N\Nc1ccc(-n2ccnc2)nn1)/c1ccccc1,0,-0.2,-1,4.5%,-0.2,17
CN(C)c1ccc(C=c2c3ccccc3n3c2c2ccccc2[n+]3C)cc1,12,-5.9,-9,?,1.0,-8
CCCc1oc(C(=O)O)cc1CN,50,2.5,25,.,0.2,-7
